# Assay outcomes as filed in PubChem.
# miR-21 reporter: qHTS Assay for Modulators of miRNAs and/orActivators of miR-21; 340,000 tested, under 10 active; HeLa miR-21 FLuc reporter, luciferase, 48 h; Potency, µM (doses to about 38.3 µM), for inactives: at the top dose reporter change, positive = more light; active = well fitted rising curve with a large enough effect; inconclusive = small, poorly fitted or top-dose-only effect; inactive = no such curve, though single readings can be large or run the other way;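 further: % of control where 0% means no effect; miR-21 action dims this reporter so a rising signal means less miR-21 action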
#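 Compounds were titrated across several concentrations (up to approximately 40 uM) and incubated 48 hours with HeLa miR-21-FLuc reporter cells (miR-21 target sequence downstream of FLuc, endogenous miR-21). Readout was firefly luciferase luminescence after lytic detection reagent.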
# The depositor's hits bear a star; ? = inconclusive; [ ] = remark or other dose.
miR-21 reporter | SMILES
0.9% | CCCCN(CC)C(=O)Cn1cc2c(n1)-c1c(oc(C(=O)N3CCCC3)c1C)CC2
-42.1% | Cc1ccccc1NC(=O)CSc1nnc(-c2cccs2)o1
-0.9% | O=S(=O)(Nc1cccc(C(F)(F)F)c1)c1ccc(NS(=O)(=O)c2ccc3c(c2)OCCO3)cc1
-0.6% | CCCCN(C)CCCNC(=O)Cn1ncc2c3ccccc3n(Cc3ccccc3)c2c1=O
2.7% | Cc1ccc(C)c(N2CCN(c3ncnc4c3nc3n4CCCCC3)CC2)c1
-1.6% | CCOc1ccccc1NC(=O)CSc1nnc2[nH]c(=O)cc(C)n12
0.9% | COc1cc(Cl)c(C)cc1NC(=O)Cn1ncc2c1-c1cc(C)ccc1OC2
5.9% | COc1ccc(CCCc2nnc(SCC(=O)Nc3ccc(C)cc3C)o2)cc1
? | O=C(c1ccc2c(c1)N(Cc1ccc(F)cc1)C(=O)c1ccccc1S2=O)N1CCC(Cc2ccccc2)CC1 (centres undefined)
0.1% | Cc1ccc2nc(/C(C#N)=C/c3ccc(-c4cccc(Cl)c4)o3)[nH]c2c1

# Going on with the list:
miR-21 reporter | SMILES
-2.5% | CCCOc1ccc(C(=O)N2CCC(c3nc4ccccc4s3)CC2)cc1
3.6% | COc1cccc(CN2C(=O)c3ccccc3Sc3ccc(C(=O)NCCc4ccc(C)cc4)cc32)c1
-1.0% | O=c1oc2ccccc2c(N2CCN(c3ccccc3F)CC2)c1CN1CCCC1
-11.9% | Cc1ccc2c(=O)c(C(=O)c3ccccc3)cn(CC(=O)Nc3ccc4c(c3)OCCO4)c2n1
-3.9% | COc1ccc(CNc2nc(-c3ccco3)nn2S(=O)(=O)c2ccc(Cl)cc2)cc1OC
1.0% | Cc1ccc(S(=O)(=O)c2nc(-c3ccc(F)cc3)oc2N2CCN(c3ccccc3)CC2)cc1
-78.1% | CC(C)(C)C(=O)Nc1ccc(-c2nc3ccc(NC(=O)C(C)(C)C)cc3[nH]2)cc1
8.3% | COc1ccc(NC(=O)CCS(=O)(=O)c2nc(-c3ccc4c(c3)OCO4)cc(C(F)(F)F)n2)c(OC)c1
-0.8% | CCOc1ccc(NC(=O)CCCn2c(C)c3cnn(-c4ccccc4)c(=O)c3c2C)cc1
-4.5% | Cc1ccc(-n2ncc3c(N(C)Cc4ccccc4)ncnc32)cc1

# (listing goes on)
miR-21 reporter | SMILES
11.2% | COc1ccc(S(=O)(=O)N(CC(=O)Nc2ccccc2Cl)Cc2ccccc2)cc1
8.0% | CS(=O)(=O)c1ncc(N(Cc2ccccc2)Cc2ccco2)c(C(=O)Nc2cccc(C(F)(F)F)c2)n1
-0.6% | CCOc1ccc(-c2noc(CSc3nnc(Cc4ccccc4)n3-c3ccc(F)cc3)n2)cc1
-4.3% | CCOc1ccc(CNC(=O)CCCn2c(=O)c3cccn3c3cccnc32)cc1
-5.6% | CCCc1cc(=O)oc2c(C)c3c(cc12)CN(CCc1ccc(Cl)cc1)CO3
-8.5% | Cn1c(=O)n(C)c2cc(CNCc3ccccc3Cl)ccc21
1.6% | CSc1nn(Cc2ccc(F)cc2)c(N(C(C)=O)C(C)=O)c1S(=O)(=O)c1ccccc1
-4.5% | CCS(=O)(=O)N1CCc2cc(C(=O)Nc3cc([N+](=O)[O-])ccc3C)ccc21
-0.5% | CCOC(=O)C1=C(CN2CCC(C)CC2)NC(=O)NC1c1ccc(F)cc1 (centres undefined)
-4.1% | CCc1ccc(NC(=O)c2nn(-c3ccc(C)cc3)c(=O)n(C)c2=O)cc1

# Continuation:
miR-21 reporter | SMILES
-48.4% | COc1cccc(OC(=O)CSc2nnc(-c3cccs3)o2)c1
-3.8% | COC(=O)c1cc2oc3ccccc3c2n1CC(=O)Nc1ccc(F)c(Cl)c1
-32.9% | COc1ccc(CNc2ncnc3c2cnn3-c2ccc(C)c(C)c2)cc1
-14.7% | COC(=O)Cn1c(=O)c2cccn2c2cccnc21
0.6% | COC(=O)c1cc2occc2n1Cc1nc(-c2cccc(Br)c2)oc1C
0.9% | COCCn1c(SCC(=O)c2cc(C)ccc2C)nc2cc(C(=O)NC3CCCC3)ccc2c1=O
-64.0% | CCOc1ccccc1Nc1ncnc2c1cnn2-c1ccc(C)cc1
0.2% | CCCOc1ccc(C2C(=O)N(C3CCC(C)CC3)CC(=O)N2Cc2cccc(OC)c2)cc1OC (centres undefined)
-0.9% | CC(C)c1cnc2c(c1SCC(=O)c1ccc(Cl)cc1)c(=O)n(C)c(=O)n2C
2.4% | COc1cc(OC)c(Nc2nc3ccccc3nc2-n2nc(C)cc2C)cc1Cl

# 2 entries picked at random from the list so far, as already listed:
miR-21 reporter | SMILES
-0.9% | CC(C)c1cnc2c(c1SCC(=O)c1ccc(Cl)cc1)c(=O)n(C)c(=O)n2C
-32.9% | COc1ccc(CNc2ncnc3c2cnn3-c2ccc(C)c(C)c2)cc1

# The results go on:
miR-21 reporter | SMILES
-6.9% | Cc1ccccc1-c1nc2cc(NC(=O)c3cccc(OCCC(C)C)c3)ccc2o1
0.3% | Cc1cccc(C(=O)Nc2ccc(C(=O)OCc3cc(=O)n4nc(CC(C)C)sc4n3)cc2)c1
? | COc1cccc(-c2nc(CS(=O)(=O)CC(=O)N3CCN(c4cc(C)ccc4C)CC3)c(C)o2)c1
-19.4% | Cc1ccc(N(CC(C)C)S(=O)(=O)c2nnc(NC(=O)C(C)C)s2)cc1
-11.5% | CC(=O)Nc1ccccc1-c1nc2ccccc2n(C(C)C(=O)Nc2cc(Cl)ccc2C)c1=O (centres undefined)
-2.3% | Cc1ccc(F)cc1NC(=O)CSc1nc(-c2cccs2)cc(C(F)(F)F)n1
9.5% | O=C(CSc1nccn1-c1ccc(F)cc1)Nc1ccc(OC(F)(F)F)cc1
-0.8% | CCOC(=O)c1sc(NC(=O)c2nc(SCC)ncc2Cl)c(C(=O)OCC)c1C
-6.0% | CCOc1ccc(S(=O)(=O)Nc2cccc(-c3ccc(N4CCCC4)nn3)c2)cc1
11.7% | Nc1ccc2oc(-c3ccccc3Br)nc2c1

# Sorted by molecular weight (descending): some entries from above.
miR-21 reporter | SMILES
? | COc1cccc(-c2nc(CS(=O)(=O)CC(=O)N3CCN(c4cc(C)ccc4C)CC3)c(C)o2)c1
0.2% | CCCOc1ccc(C2C(=O)N(C3CCC(C)CC3)CC(=O)N2Cc2cccc(OC)c2)cc1OC (centres undefined)
0.9% | COCCn1c(SCC(=O)c2cc(C)ccc2C)nc2cc(C(=O)NC3CCCC3)ccc2c1=O
0.3% | Cc1cccc(C(=O)Nc2ccc(C(=O)OCc3cc(=O)n4nc(CC(C)C)sc4n3)cc2)c1
-11.5% | CC(=O)Nc1ccccc1-c1nc2ccccc2n(C(C)C(=O)Nc2cc(Cl)ccc2C)c1=O (centres undefined)
1.6% | CSc1nn(Cc2ccc(F)cc2)c(N(C(C)=O)C(C)=O)c1S(=O)(=O)c1ccccc1
-0.8% | CCOC(=O)c1sc(NC(=O)c2nc(SCC)ncc2Cl)c(C(=O)OCC)c1C
-2.3% | Cc1ccc(F)cc1NC(=O)CSc1nc(-c2cccs2)cc(C(F)(F)F)n1
-6.0% | CCOc1ccc(S(=O)(=O)Nc2cccc(-c3ccc(N4CCCC4)nn3)c2)cc1
-0.9% | CC(C)c1cnc2c(c1SCC(=O)c1ccc(Cl)cc1)c(=O)n(C)c(=O)n2C
-6.9% | Cc1ccccc1-c1nc2cc(NC(=O)c3cccc(OCCC(C)C)c3)ccc2o1
9.5% | O=C(CSc1nccn1-c1ccc(F)cc1)Nc1ccc(OC(F)(F)F)cc1
2.4% | COc1cc(OC)c(Nc2nc3ccccc3nc2-n2nc(C)cc2C)cc1Cl
-4.3% | CCOc1ccc(CNC(=O)CCCn2c(=O)c3cccn3c3cccnc32)cc1
-3.8% | COC(=O)c1cc2oc3ccccc3c2n1CC(=O)Nc1ccc(F)c(Cl)c1
-5.6% | CCCc1cc(=O)oc2c(C)c3c(cc12)CN(CCc1ccc(Cl)cc1)CO3
-19.4% | Cc1ccc(N(CC(C)C)S(=O)(=O)c2nnc(NC(=O)C(C)C)s2)cc1
-4.5% | CCS(=O)(=O)N1CCc2cc(C(=O)Nc3cc([N+](=O)[O-])ccc3C)ccc21
-0.5% | CCOC(=O)C1=C(CN2CCC(C)CC2)NC(=O)NC1c1ccc(F)cc1 (centres undefined)
-4.1% | CCc1ccc(NC(=O)c2nn(-c3ccc(C)cc3)c(=O)n(C)c2=O)cc1
-32.9% | COc1ccc(CNc2ncnc3c2cnn3-c2ccc(C)c(C)c2)cc1
-48.4% | COc1cccc(OC(=O)CSc2nnc(-c3cccs3)o2)c1
-64.0% | CCOc1ccccc1Nc1ncnc2c1cnn2-c1ccc(C)cc1
-8.5% | Cn1c(=O)n(C)c2cc(CNCc3ccccc3Cl)ccc21
11.7% | Nc1ccc2oc(-c3ccccc3Br)nc2c1
-14.7% | COC(=O)Cn1c(=O)c2cccn2c2cccnc21

# Continued.
miR-21 reporter | SMILES
0.3% | CCOc1ccc2c(c1)c(=O)c(S(=O)(=O)c1ccc(CC)cc1)cn2Cc1cccc(Cl)c1
20.5% | COc1ccc(OCCSc2nc3ccccc3n2CC(=O)N2CCOCC2)cc1
-57.8% | Cc1ccc(CNc2nc3nc(C)c(Cl)c(C)n3n2)cc1
11.7% | Cc1ccc(C)c(N2CCN(C(=O)CN3CCSc4ccc(S(=O)(=O)N(C)C)cc43)CC2)c1
10.1% | COc1ccc2c(Sc3ccccc3)c(C(=O)NCc3cc(Br)ccc3OC)[nH]c2c1
-10.9% | CCOc1ccc(OC(=O)c2c(-c3ccccc3Cl)noc2C)cc1
-2.8% | CCC(Sc1nc(-c2ccccc2F)nc2c1Cc1c(CO)cnc(C)c1O2)C(=O)Nc1cc(C)ccc1C (centres undefined)
-7.4% | COc1ccc(-c2cn3nc(N4CCCC(C(=O)NCc5ccc(Cl)cc5)C4)sc3n2)cc1 (centres undefined)
-1.4% | CCC(C)NC(=O)c1ccc(-n2c(-c3ccccc3)cc3c2CCCC3)cc1 (centres undefined)
? | CCc1nc2c(cnn2-c2ccc(C)cc2)c(=O)n1-c1ccc(C)cc1

# The listing continues.
miR-21 reporter | SMILES
? | Cc1ccccc1OCCCCn1c(C2CC(=O)N(c3ccccc3Cl)C2)nc2ccccc21 (centres undefined)
16.5% | CN1CCN(C(=O)c2ccc3c(c2)N(Cc2c(F)cccc2Cl)C(=O)c2ccccc2S3)CC1
-6.6% | COCCc1nn2c(=O)cc(COC(=O)c3ccc(OC)c(OC)c3)nc2s1
-2.4% | CCOC(=O)c1ccccc1NC(=O)c1nn(-c2ccc(OC)c(Cl)c2)c(=O)c2c1c1ccccc1n2C
13.9% | Cc1ccc(C)c(-c2csc(-c3c(N)c(C(=O)c4ccc5c(c4)OCO5)n4ccccc34)n2)c1
-14.1% | CCOC(=O)c1ccc2ncc(C(=O)OCC)c(Nc3ccc(C)c(Br)c3)c2c1
6.5% | COc1ccc(OC)c(NC(=O)CN2C(=O)CCc3cc(S(=O)(=O)N4CCCCC4)ccc32)c1
-5.5% | Cc1nn(CC(=O)NCc2ccc(N(C)C)cc2)c(=O)c2c(C)n(-c3ccc(Cl)cc3)nc12
-8.7% | Oc1c(C(c2ccc(F)cc2)N2CCCC2)sc2nc(-c3ccco3)nn12 (centres undefined)
-1.4% | CCOC(=O)c1ccccc1NC(=O)Cn1c(=O)n(-c2cccc(C)c2)c(=O)c2c1c1cc(C)ccc1n2C

# Later entries
miR-21 reporter | SMILES
-36.8% | CC(=O)c1ccc(NC(=O)CSc2nccn2Cc2ccco2)cc1
-21.2% | Cc1ccc(OCC(=O)Nc2ccc3nc(SCC(=O)N4CCOCC4)sc3c2)cc1
0.4% | O=C(CSc1nccn1-c1ccc(F)cc1)Nc1cccc2ccccc12
-3.1% | Cc1ccc(CN(C(=O)COc2cccc(Cl)c2)c2ccccn2)o1
28.9% | Cc1nc2cc(-c3ccccc3)nn2c(C)c1CCC(=O)Nc1ccc(F)cc1F
-0.2% | Cc1ccc(C)c(CN2C(=O)CSc3ccc(C(=O)NCCc4ccc(Cl)cc4)cc32)c1
-9.1% | O=C(c1cccs1)N1CCCc2cc(NS(=O)(=O)c3cc(F)ccc3F)ccc21
-1.0% | Cc1ccc(C)c(Cn2c3ccccc3c3cnn(CC(=O)NCc4ccccc4)c(=O)c32)c1
? | Cc1cccc(C(CC(=O)NCC2(c3ccccc3)CCCC2)c2ccccc2)c1O (centres undefined)
-3.0% | O=C(Cn1ncc2ccsc2c1=O)N1CCN(c2ccccc2F)CC1

# Further entries follow:
miR-21 reporter | SMILES
-13.3%[7.66 µM] | Cc1cc2c(c(=O)o1)C1O[C@](c3ccsc3)(Cc3ccccc31)O2
3.6% | COc1ccc(C(=O)Nc2ccc(C(=O)OCc3cc(=O)n4nc(C(C)C)sc4n3)cc2)cc1
-2.4% | Cn1cnnc1SCC(=O)Nc1ccc(C#N)cc1
1.9% | CCCCNC(=O)C1CCN(Cc2nc(-c3ccc(OC)c(OC)c3)oc2C)CC1
-15.2% | Clc1ccc2c(c1)NC(c1ccncc1)=NC(c1cccs1)=N2
-24.7% | CCOc1ccc(-n2nc(CO)c(C(=O)NCc3cccc(OC)c3)n2)cc1
2.0% | Cc1ccc(NC(=O)CSc2nc(-c3ccccc3Cl)nc3cc(=O)[nH]n23)c(C)c1
10.9% | CCOc1ccccc1Nc1sc(C(=O)c2ccccc2)c(N)c1C(=O)Nc1ccc(F)cc1
2.0% | Cc1c(Cl)cccc1NC(=O)CN(CCc1ccccc1)S(=O)(=O)c1ccccc1
-4.4% | CC(C)Cc1nn2c(=O)cc(COC(=O)CNC(=O)c3ccc(C(C)(C)C)cc3)nc2s1
9.3% | CCCn1c2ccccc2c2cnn(CC(=O)Nc3ccc(C)cc3Br)c(=O)c21
-45.5% | CCOC(=O)c1ccc(NC(=O)c2csnn2)cc1
-18.3% | Cc1cc2nnc(SCc3ccc(F)cc3)n2c2ccccc12

# The list is partial, so the mix of outcomes need not match the whole.
